High-throughput results: PubChem, Broad Institute
RanGTP-Imp inh: inhibitors of RanGTP-importin-beta interaction, primary screen, biochemical, FRET, CFP-Ran, YFP-importin-beta, homogeneous | Ran GTPase (GTP-bound) - importin-beta complex | cell-free CFP-Ran/YFP-importin-beta FRET ratio | inhibition, % (test concentration not listed) | 300,000 compounds, 1.1% hits | AID 2216, 2009;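 active = most replicates above 15%; inconclusive = exactly half above 15%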;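 note: 0% = DMSO wells and 100% = Ran loaded with GDP instead of GTP; wells of about 40 µL received 100 nL stock; the first replicate is given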
rRNA inh HTS: reduced GFP signal of wild-type E. coli, primary screen, bacterial rRNA inhibitor project, GFP/RFP fluorescence, OD600, single point | E. coli WT GFP vs humanized-ribosome RFP mutants, 24 h; hits give low values; DMSO median 0, no signal -100 | 350,000 compounds, 1.6% hits | GFP signal change (wild-type ribosome), % (concentration not given with the values);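 active = significant combined selectivity score with lowered wild-type GFP, culture density cut under 30%, mutant RFP and density less affected; inactive = any of these conditions unmet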; note: one replicate is shown; some compounds called inactive have numbers as strong as hits
Beta cell apopt: inhibitors of cytokine-induced beta cell apoptosis, primary screen, luminescence. INS-1E cytokine-induced death, ATP luminescence, 48 h; percent of positive-control rescue, neutral wells zero. protection from apoptosis, % (concentration not given with the values). 300,000 compounds, 0.8% hits. AID 435005, 2010;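 active = all replicates at 75% or more, or half of them and the mean; inconclusive = half reach 75% but not the mean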;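 note: 0% = cytokine-treated negative control wells and 100% = positive control rescue; higher means more ATP so stronger rescue from cytokine killing; wells of about 40 µL received 100 nL stock; the first replicate is given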
T cruzi repl: inhibitors of intracellular T. cruzi growth, primary screen, luminescence, NIH3T3 host cells | T. cruzi beta-gal in NIH3T3, 90 h | 300,000 compounds, 1.4% hits | inhibition, % (no concentration beside the values);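 active = mean inhibition across valid replicates above about 55%, limit read from the data; inconclusive = mean below that limit but half or more replicates reach it; inactive = mean below it, under half of replicates reach it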;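 note: signal also drops with host cell toxicity which is not excluded here; 0% = plate median of DMSO wells and 100% = zero luminescence signal; higher percent means less beta-gal luminescence so fewer parasites; stock transfer was 50 nL into about 50 µL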
ALR inh: inhibitors of human ALR sulfhydryl oxidase, primary screen, biochemical, H2O2 detection, HRP-luminol luminescence, single point. FAD-linked sulfhydryl oxidase ALR (Homo sapiens), P55789. purified ALR, DTT oxidation. inhibition, % (no concentration beside the values). 290,000 compounds, 3.8% hits;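 active = mean and each replicate at 75% or more; inconclusive = only one of the two met; inactive = neither met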;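 note: stock transfer was 7.5 nL into about 7.5 µL; 0% = neutral wells and 100% = wells with inactivated enzyme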
Target sequence (P55789 whole entry, looked up): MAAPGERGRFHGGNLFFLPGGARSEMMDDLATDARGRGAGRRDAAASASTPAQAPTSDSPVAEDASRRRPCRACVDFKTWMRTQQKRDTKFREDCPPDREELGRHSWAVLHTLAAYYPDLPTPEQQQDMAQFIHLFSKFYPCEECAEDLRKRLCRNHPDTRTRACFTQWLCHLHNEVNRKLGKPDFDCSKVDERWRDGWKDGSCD
AF4-AF9 inh: inhibitors of AF4 peptide binding to AF9, primary screen, biochemical, AlphaScreen, biotin-AF4 peptide, FLAG-AF9, single point. Protein AF-9 (Homo sapiens), P42568. 350,000 compounds, 0.47% hits. AID 651704, 2012. inhibition, % at 10 µM;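 active = every replicate reaching a set inhibition limit, whatever the replicate mean, cut at about 25% in these data; inconclusive = mean inhibition reaches that limit but some replicates miss it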;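 note: 0% = plate neutral control median and 100% = total signal loss; the record names both 10 and 1 µM as test concentration; the first replicate is given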
Target sequence (P42568 whole entry, looked up): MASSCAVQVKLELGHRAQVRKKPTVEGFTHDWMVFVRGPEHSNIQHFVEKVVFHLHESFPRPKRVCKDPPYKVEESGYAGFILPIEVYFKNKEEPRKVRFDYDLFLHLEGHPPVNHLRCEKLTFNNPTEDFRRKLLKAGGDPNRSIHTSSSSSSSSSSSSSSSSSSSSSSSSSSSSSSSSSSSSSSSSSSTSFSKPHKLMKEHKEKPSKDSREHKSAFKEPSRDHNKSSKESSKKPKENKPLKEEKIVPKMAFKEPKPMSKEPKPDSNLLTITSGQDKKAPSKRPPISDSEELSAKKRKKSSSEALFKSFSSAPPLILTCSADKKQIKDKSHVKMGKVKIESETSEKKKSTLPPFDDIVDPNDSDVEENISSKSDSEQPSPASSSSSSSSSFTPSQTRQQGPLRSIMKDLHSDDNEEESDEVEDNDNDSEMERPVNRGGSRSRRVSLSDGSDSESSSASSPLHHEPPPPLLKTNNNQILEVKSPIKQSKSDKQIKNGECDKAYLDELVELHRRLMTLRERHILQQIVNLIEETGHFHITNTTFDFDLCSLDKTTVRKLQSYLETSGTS
Calb FLC: C. albicans growth inhibition with fluconazole, primary screen, CaCi-2 strain, Alamar Blue fluorescence; C. albicans CaCi-2 (fluconazole-resistant clinical isolate) + fluconazole, 48 h; growth inhibition, % (test concentration not listed); 300,000 compounds, 0.57% hits; AID 1979, 2009;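 active = most replicates above 75%; inconclusive = exactly half above 75%; inactive = most below 75%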;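 note: all wells also contain fluconazole at 8 µg/ml as a sub-toxic cotreatment; 0% = median of DMSO wells and 100% = median of geldanamycin control wells; wells of about 8 µL received 7.5 nL stock; the first replicate is given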
FGF22 binding: binders of human FGF22 protein, primary screen, FGF22 synaptogenesis inhibitor project, biophysical, thermal shift, single point | Fibroblast growth factor 22 (Homo sapiens), Q9HCT0 | recombinant FGF22 thermal shift, SYPRO orange fluorescence; percent of sucrose octasulfate shift, DMSO zero | calls only at 9.99 µM | 340,000 compounds, 1.5% hits | AID 651658, 2012;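 active = melting point raised past a set limit in the mean and every replicate; inconclusive = no clear call; three in four hits are not shown here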
Target sequence (Q9HCT0 whole entry, looked up): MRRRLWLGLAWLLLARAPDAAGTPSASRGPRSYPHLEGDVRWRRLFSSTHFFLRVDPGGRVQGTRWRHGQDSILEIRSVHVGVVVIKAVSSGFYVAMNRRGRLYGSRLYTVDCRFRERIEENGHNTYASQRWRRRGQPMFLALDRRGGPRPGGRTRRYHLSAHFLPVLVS
rRNA inh HTS OD600: also measured in rRNA inh HTS; calls as there; OD600 change, %; measured here: OD600 growth;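 optical density of the mix in the first replicate; 0 = DMSO median and -100 = no signal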
rRNA inh HTS RFP: also measured in rRNA inh HTS; calls as there; RFP signal change, %; measured here: RFP humanized mutant strains;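 first replicate; 0 = DMSO median and -100 = no signal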
* hit, by the source's call. A portion of the library (hit frequency here may not be typical).

For COc1ccc(C)cc1NC(=O)CCCNC(=O)Cn1cnc2sc(C)c(C)c2c1=O the results were RanGTP-Imp inh 3.4, rRNA inh HTS 10, Beta cell apopt 2, T cruzi repl -4, ALR inh 2, AF4-AF9 inh -2.8, Calb FLC -4, FGF22 binding inactive, rRNA inh HTS OD600 8 and rRNA inh HTS RFP 7.3.
COc1ccc(OC)c(/C=C2\SC(=S)N(Cc3cccnc3)C2=O)c1 was read as RanGTP-Imp inh -141, Beta cell apopt 32, T cruzi repl -12, ALR inh -18 and Calb FLC 30.
For CCOC(=O)C1CCN(C(=O)Nc2ccc3snnc3c2)CC1 the results were RanGTP-Imp inh -0.3, rRNA inh HTS -34, Beta cell apopt 8, T cruzi repl 1, ALR inh -17, AF4-AF9 inh 1.1, Calb FLC 49, FGF22 binding inactive, rRNA inh HTS OD600 -42 and rRNA inh HTS RFP -20.
Cc1ccccc1OCCCN1C(=O)C(=O)c2cccc(C)c21 was read as RanGTP-Imp inh 4.3, rRNA inh HTS -4, Beta cell apopt -2, T cruzi repl 8, ALR inh 4, AF4-AF9 inh 7.9, Calb FLC -2, FGF22 binding inactive, rRNA inh HTS OD600 -17 and rRNA inh HTS RFP 11.
For CCOC(=O)c1c(NC(=O)c2cccs2)sc2c1CCC2 the results were RanGTP-Imp inh 2.0, rRNA inh HTS 10, Beta cell apopt 4, T cruzi repl -10, ALR inh -1, AF4-AF9 inh -13, Calb FLC 6, FGF22 binding inactive, rRNA inh HTS OD600 10 and rRNA inh HTS RFP 4.1.
CN(c1ccccc1)S(=O)(=O)c1cccc(NC(=O)Cc2n[nH]c(=O)c3ccccc23)c1 was read as rRNA inh HTS -33, Beta cell apopt 14, ALR inh -3, AF4-AF9 inh 3.6, FGF22 binding inactive, rRNA inh HTS OD600 -54 and rRNA inh HTS RFP 16.
Cc1c(OCC(=O)NC2CC(C)(C)NC(C)(C)C2)ccc2c1oc(=O)c1ccccc12 was read as RanGTP-Imp inh 0.0, rRNA inh HTS 0, Beta cell apopt 18, T cruzi repl 21, ALR inh -14, AF4-AF9 inh 1.7, Calb FLC 17, FGF22 binding inactive, rRNA inh HTS OD600 1 and rRNA inh HTS RFP 1.9.
`CCCCc1c(O)nc(SCC(=O)NCCc2ccc(OC)c(OC)c2)[nH]c1=O` gave RanGTP-Imp inh 5.4, Beta cell apopt -1, T cruzi repl -5 and Calb FLC 3.
For COc1ccc(-n2nc(C(=O)Nc3ccc(OC)c(OC)c3)c3c4ccccc4n(C)c3c2=O)cc1 the results were RanGTP-Imp inh 0.0, Beta cell apopt 18, T cruzi repl 17, ALR inh -9 and Calb FLC 0.
`CC(=O)NC(CC(=O)O)c1ccccc1` (centres undefined) gave RanGTP-Imp inh -0.2, rRNA inh HTS -12, Beta cell apopt -4, T cruzi repl -2, ALR inh -1, AF4-AF9 inh 2.6, Calb FLC 1, FGF22 binding inactive, rRNA inh HTS OD600 -2 and rRNA inh HTS RFP -0.9.
For O=S(=O)(NCC(c1ccc2c(c1)OCO2)N1CCN(c2ccccc2)CC1)c1ccccc1 (centres undefined) the results were RanGTP-Imp inh -0.2, rRNA inh HTS -15, T cruzi repl 0, AF4-AF9 inh 2.3, Calb FLC 0, FGF22 binding inactive, rRNA inh HTS OD600 -13 and rRNA inh HTS RFP -2.9.
Cc1ccc2cc3cc(C(=O)NCCC(C)C)oc3nc2c1 was read as RanGTP-Imp inh 7.0, Beta cell apopt -1, T cruzi repl 3, ALR inh -1 and Calb FLC -8.
Screening NC(=O)c1c(NC(=O)C2CCCO2)sc2c1CCCCC2 (centres undefined) returned RanGTP-Imp inh -2.1, rRNA inh HTS 1, Beta cell apopt -6, T cruzi repl -7, ALR inh -6, AF4-AF9 inh -16, Calb FLC -3, FGF22 binding inactive, rRNA inh HTS OD600 8 and rRNA inh HTS RFP 3.6.
Screening COc1cc(-c2nnc(SCc3cc(=O)oc4cc(C)ccc34)o2)cc(OC)c1OC returned RanGTP-Imp inh 0.3, Beta cell apopt 1, T cruzi repl 33, ALR inh 58 and Calb FLC 32.
Screening COc1ccc(-c2nc(N3CCOCC3)nc3n[nH]c(N)c23)cc1 returned RanGTP-Imp inh 0.5, Beta cell apopt -12, T cruzi repl -4, ALR inh 51 and Calb FLC 5.
Cn1c(SCc2nnc(-c3ccc(F)cc3)o2)nnc1C1COc2ccccc2O1 (centres undefined) was read as RanGTP-Imp inh -1.2, Beta cell apopt -5, T cruzi repl 18, ALR inh -2 and Calb FLC 7.
Screening CN1C2=NCCN2C(=O)c2ccccc21 returned RanGTP-Imp inh -1.5, Beta cell apopt 0, T cruzi repl -12, ALR inh -1 and Calb FLC -10.
CC(C)OP(=O)(c1ccc(N(C)C)cc1)C(Nc1ccccc1)c1cccnc1 (centres undefined) was read as RanGTP-Imp inh 4.7, Beta cell apopt -3, T cruzi repl 13, ALR inh 35 and Calb FLC 42.
CCCC(Oc1ccc(Br)cc1)c1nc2c3cc(OC)c(OC)cc3nc(=S)n2[nH]1 (centres undefined) was read as RanGTP-Imp inh 2.1, rRNA inh HTS 6, Beta cell apopt 35, T cruzi repl 49, ALR inh 2, AF4-AF9 inh -4.4, Calb FLC 27, FGF22 binding inactive, rRNA inh HTS OD600 2 and rRNA inh HTS RFP 0.3.
Screening O=C(CNCCc1ccc(Cl)cc1)Nc1ccc(C(=O)N2CCCCC2)cc1 returned RanGTP-Imp inh 1.9, rRNA inh HTS -17, Beta cell apopt 0, T cruzi repl 62*, ALR inh -4, AF4-AF9 inh 3.9, Calb FLC 3, FGF22 binding inactive, rRNA inh HTS OD600 -24 and rRNA inh HTS RFP 1.8.
For Cc1nc(-c2cc(C#N)c(Sc3cccc(C(F)(F)F)c3)nc2C)cs1 the results were RanGTP-Imp inh -2.3, rRNA inh HTS 2, Beta cell apopt 2, T cruzi repl -9, ALR inh -3, AF4-AF9 inh -0.6, Calb FLC 3, FGF22 binding inactive, rRNA inh HTS OD600 0 and rRNA inh HTS RFP -5.8.
For O=C(NN=C1CCCC1)c1cccc(O)c1 the results were RanGTP-Imp inh -0.9, rRNA inh HTS 6, Beta cell apopt -3, T cruzi repl -6, ALR inh 38, AF4-AF9 inh 1.0, Calb FLC -3, FGF22 binding inactive, rRNA inh HTS OD600 10 and rRNA inh HTS RFP -1.3.
CCC(C(=O)NC1CCCC1)N(C(=O)Cn1nnc(-c2ccc(C)o2)n1)c1ccccc1OC (centres undefined) was read as RanGTP-Imp inh -3.5, rRNA inh HTS -4, Beta cell apopt 3, T cruzi repl 10, ALR inh -21, AF4-AF9 inh 2.4, Calb FLC -8, FGF22 binding inactive, rRNA inh HTS OD600 11 and rRNA inh HTS RFP -1.3.
Screening Cc1ccc(-c2nc(N3CCOCC3)sc2C(=O)N2CCOCC2)cc1 returned RanGTP-Imp inh 8.1, Beta cell apopt 4, T cruzi repl 3, ALR inh -2 and Calb FLC -4.
Screening CC(C)CN(C(=O)COC(=O)c1ccccc1NCc1ccco1)c1c(N)n(Cc2ccccc2)c(=O)[nH]c1=O returned RanGTP-Imp inh -2.5, rRNA inh HTS 10, Beta cell apopt -4, T cruzi repl 7, AF4-AF9 inh inconclusive, Calb FLC -21, FGF22 binding inactive, rRNA inh HTS OD600 5 and rRNA inh HTS RFP 3.1.
`O=C(CC(=O)Nc1nc(C23CC4CC(CC(C4)C2)C3)cs1)NCCO` gave RanGTP-Imp inh 1.5, rRNA inh HTS -9, Beta cell apopt -9, T cruzi repl 2, ALR inh -11, Calb FLC -3, FGF22 binding inactive, rRNA inh HTS OD600 -8 and rRNA inh HTS RFP -2.4.
O=[N+]([O-])c1cccc(-c2nnc3ccccn23)c1 was read as RanGTP-Imp inh 3.6, Beta cell apopt -1, T cruzi repl -4, ALR inh -12 and Calb FLC 16.
For CCOc1ccccc1C1N(c2ccc(OC)cc2)C(=O)C2CCCN21 (centres undefined) the results were RanGTP-Imp inh 5.0, rRNA inh HTS 4, Beta cell apopt -9, T cruzi repl -5, ALR inh -7, AF4-AF9 inh -2.4, Calb FLC -2, rRNA inh HTS OD600 6 and rRNA inh HTS RFP 0.0.
Screening CC(C(=O)Nc1ccc(S(=O)(=O)N2CCCC2)cc1)N1CCN(C(=O)c2ccco2)CC1 (centres undefined) returned RanGTP-Imp inh 4.6, Beta cell apopt 3, T cruzi repl -10, ALR inh 2 and Calb FLC -28.
`CCCCCn1c(Br)nc2c1c(=O)n(CC(N)=O)c(=O)n2C` gave RanGTP-Imp inh 1.4, Beta cell apopt -3, T cruzi repl 6, ALR inh 92* and Calb FLC 0.
`CCCCNC(=O)/C(C#N)=C/c1ccc(F)cc1F` gave RanGTP-Imp inh -1.5, rRNA inh HTS 0, Beta cell apopt -10, T cruzi repl -14, ALR inh inconclusive, AF4-AF9 inh -1.6, Calb FLC 6, FGF22 binding inactive, rRNA inh HTS OD600 -1 and rRNA inh HTS RFP 3.6.
Screening CCCn1c2c(c(=N)c3c1CCC3)CCC2 returned RanGTP-Imp inh -1.5, rRNA inh HTS 16, Beta cell apopt 24, T cruzi repl 45, ALR inh -13, Calb FLC -4, FGF22 binding inactive, rRNA inh HTS OD600 4 and rRNA inh HTS RFP 2.0.
CCc1ccc(-n2c(C)cc(/C=N/NC(=O)c3ccncc3)c2C)cc1 was read as RanGTP-Imp inh 11, rRNA inh HTS 5, Beta cell apopt 106*, T cruzi repl 27, ALR inh 0, AF4-AF9 inh 11, Calb FLC -11, FGF22 binding inactive, rRNA inh HTS OD600 6 and rRNA inh HTS RFP -1.1.
Cc1cccc(NS(=O)(=O)c2cccc([N+](=O)[O-])c2)n1 was read as RanGTP-Imp inh 5.4, rRNA inh HTS 8, Beta cell apopt 0, T cruzi repl -2, ALR inh -29, AF4-AF9 inh -2.1, Calb FLC -17, FGF22 binding inactive, rRNA inh HTS OD600 15 and rRNA inh HTS RFP -0.6.
For COc1ccc(-c2c(C(F)(F)F)nn(C)c2NC(C)=O)cc1 the results were RanGTP-Imp inh 5.2, rRNA inh HTS 6, Beta cell apopt 4, T cruzi repl -11, ALR inh -8, AF4-AF9 inh 2.6, Calb FLC 7, FGF22 binding inactive, rRNA inh HTS OD600 2 and rRNA inh HTS RFP 3.1.
For CCc1cccc(C)c1NC(=O)Cc1ccsc1 the results were RanGTP-Imp inh -0.8, rRNA inh HTS 4, Beta cell apopt 7, T cruzi repl -6, AF4-AF9 inh 1.0, Calb FLC -4, FGF22 binding inactive, rRNA inh HTS OD600 1 and rRNA inh HTS RFP -1.2.
Cc1ccc2c(N)[nH]nc2n1 was read as RanGTP-Imp inh -2.8, rRNA inh HTS 7, Beta cell apopt -2, T cruzi repl -7, ALR inh 57, AF4-AF9 inh -1.9, Calb FLC 4, rRNA inh HTS OD600 22 and rRNA inh HTS RFP 1.0.
`Cc1ccc(Sc2ccc(N)cc2C#N)cc1` gave RanGTP-Imp inh 0.1, Beta cell apopt -6, T cruzi repl 8, ALR inh -7 and Calb FLC -28.
